VDR inhibitor: Inhibitors of the vitamin D receptor (VDR): qHTS. 400,000 compounds, 0.93% hits. AID 504847, 2011. Vitamin D3 receptor (Homo sapiens), P11473. VDR-SRC2-3 peptide fluorescence polarization, 2 h. Potency, µM, for inactives: max response, negative = inhibition, actives largely listed as inhibitors; active means well fitted inhibition curve with a large enough effect; inconclusive means small, poorly fitted or top-dose-only effect, or another doubt; inactive means no such curve, though single readings can be large or run the other way; further: series mostly up to about 120 µM
Target sequence (P11473 whole entry, looked up): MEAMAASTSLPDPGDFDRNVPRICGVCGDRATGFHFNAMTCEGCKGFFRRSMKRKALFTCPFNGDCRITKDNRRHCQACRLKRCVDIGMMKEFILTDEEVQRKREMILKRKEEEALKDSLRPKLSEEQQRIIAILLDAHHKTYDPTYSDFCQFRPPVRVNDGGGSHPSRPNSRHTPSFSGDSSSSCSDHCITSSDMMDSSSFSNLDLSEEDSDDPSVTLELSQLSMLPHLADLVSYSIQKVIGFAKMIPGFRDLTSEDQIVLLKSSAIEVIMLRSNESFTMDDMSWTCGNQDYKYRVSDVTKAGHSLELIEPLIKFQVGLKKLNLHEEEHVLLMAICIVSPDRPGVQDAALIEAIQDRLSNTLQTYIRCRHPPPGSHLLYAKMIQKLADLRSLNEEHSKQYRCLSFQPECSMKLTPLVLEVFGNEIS
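Fluorescence polarization assay measuring small-molecule disruption of VDR binding to the coregulator peptide SRC2-3. Compounds were pin-transferred (23 nl) into the reagent mix and incubated 2 h at room temperature before reading.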
* hit, by the source's call; u = inconclusive; & = joins results of further samples; [ ] = remark or other dose. On the % scale 0 is the no-effect control and ±100 the full control effect; potency means the concentration at half of the fitted maximal effect. Some of the compounds tested (hit frequency here may not be typical).

Start of the data: the first 7 records, to show the layout:
VDR inhibitor | smiles
4% | O=C(Cc1ccc(Cl)cc1)Nc1ccc(-c2nnc(-c3ccco3)o2)cc1
-7% | CC(C)C[C@H](NC(=O)c1nc[nH]c1C(=O)NC1CCN(C(=O)OC(C)(C)C)CC1)C(=O)OCc1ccccc1
21% | Cc1nn(C(C)C(=O)N2CCN(c3ccccn3)CC2)c(=O)c2cc3occc3n12 (stereo not drawn)
5% | COc1ccc(CC(=O)NNS(=O)(=O)c2ccc3ccccc3c2)cc1OC
-5% | C/C(=N/NC(=O)C1CC1(c1ccccc1)c1ccccc1)c1cccs1 (stereo not drawn)
33%[activator] | CCOC(=S)SCC(=O)N1CCc2ccccc2C1C1C(=O)CCCC1=O (stereo not drawn)
-2% | Cc1ccc2c(c1)C=CC(C)N2C(=O)c1ccccc1 (stereo not drawn)

All compounds of this part, from the start:
VDR inhibitor | smiles
4% | O=C(Cc1ccc(Cl)cc1)Nc1ccc(-c2nnc(-c3ccco3)o2)cc1
-7% | CC(C)C[C@H](NC(=O)c1nc[nH]c1C(=O)NC1CCN(C(=O)OC(C)(C)C)CC1)C(=O)OCc1ccccc1
21% | Cc1nn(C(C)C(=O)N2CCN(c3ccccn3)CC2)c(=O)c2cc3occc3n12 (stereo not drawn)
5% | COc1ccc(CC(=O)NNS(=O)(=O)c2ccc3ccccc3c2)cc1OC
-5% | C/C(=N/NC(=O)C1CC1(c1ccccc1)c1ccccc1)c1cccs1 (stereo not drawn)
33%[activator] | CCOC(=S)SCC(=O)N1CCc2ccccc2C1C1C(=O)CCCC1=O (stereo not drawn)
-2% | Cc1ccc2c(c1)C=CC(C)N2C(=O)c1ccccc1 (stereo not drawn)
1% | CN(C)/C=N/c1c(C#N)cnn1-c1nc2ccccc2s1
u | COc1cccc(/C=C/C(=O)c2cccc([N+](=O)[O-])c2)c1
2% | COC(=O)c1ccc(C(NC(=O)OCc2ccccc2)/C(C)=C/[C@@H](C)C(=O)NCc2ccc(-c3ccccc3)cc2)cc1 (stereo partly drawn)
1% | COc1cccc(OCc2cc(/C=N/NC(=O)c3ccn[nH]3)ccc2OC)c1
-8% | O=C(Nc1cccnc1)C1CCCN(S(=O)(=O)c2cccc3nsnc23)C1 (stereo not drawn)
-3% | CCN(CC)CCCn1c(=S)[nH]c2ncccc2c1=O
14% | Cc1ccc(S(=O)(=O)N2CCOCC2)cc1NC(=O)COC(=O)C1COc2ccccc2O1 (stereo not drawn)
9% | CC(C)(C)CC(C)(C)NC(=S)Nc1ccc(S(=O)(=O)N2CCOCC2)cc1

(more compounds)
VDR inhibitor | smiles
7% | Cc1cc(=O)[nH]c(SCCOc2cccc(C(F)(F)F)c2)n1
11% | O=C(Nc1ccc(Oc2cccnc2)cc1)C1CCN(Cc2ccccc2F)CC1
1% | CSc1ccc(Cl)c(C(=O)NCCOc2cc(C(C)C)ccc2C)c1
-10% | CC(=O)O[C@H]1CC[C@@]2(C)C(=CC[C@H]3[C@@H]4CC[C@H](C5(C)OCCO5)[C@@]4(C)CC[C@@H]32)C1
1% | CCOc1cc(CNC(=O)C2COc3ccccc3C2)cc(OCC)c1OCC (stereo not drawn)
-14%&-3% | COc1cccc2oc(-c3ccccc3)cc(=O)c12
-22% | CCS(=O)(=O)Nc1ccc(C(=O)NCCSc2ccccc2)cc1
1% | COc1ccc2nc(C)cc(Nc3ccc(N4CCOCC4)cc3)c2c1
2% | Cc1ccccc1OCC(O)CN1CCN(CC(O)COc2ccccc2C)C(C)C1 (stereo not drawn)
12% | CSCCC(NS(=O)(=O)c1ccccc1F)C(=O)NCc1ccncc1 (stereo not drawn)
-29% | O=C1CC(/C=C/c2ccc(Cl)cc2)=Nc2ccccc2N1
-10% | CC(=O)N1c2ccc(S(=O)(=O)NCCC(=O)Nc3ccc(C)c(Cl)c3)cc2CC1C (stereo not drawn)
11% | COc1ccc(NS(=O)(=O)c2cccc(C(=O)N3CCN(S(=O)(=O)c4ccccc4)CC3)c2)cc1
-3% | Cc1ccc(OCCN2CCN(C(=O)CCC(=O)Nc3nnc(C)s3)CC2)cc1
-2% | CCC(C)NC(=O)c1[nH]c2cc(C)ccc2c1Sc1ccc(Cl)cc1 (stereo not drawn)

Later entries:
VDR inhibitor | smiles
6% | O=[N+]([O-])c1nn(-c2ccc(Cl)cc2)n(O)c1=NCc1cccnc1
-9% | Oc1ccc(Br)cc1Cn1nnc2ccccc21
11% | O=C(c1ccc2c(c1)OCO2)N1CCN(c2ccc(F)cc2)CC1
-14% | COc1ccc(-n2nnnc2CNC(=O)c2ccc3c(c2)OCO3)cc1
-15% | Cc1cccc(NC(=O)Nc2cc(C)on2)c1
-1% | CCOc1ccc(Nc2nc(NCC(=O)O)nc(N)c2[N+](=O)[O-])cc1
2% | CCOc1ccccc1NC(=O)COC(=O)C1CC(=O)N(c2c(C)cccc2C)C1 (stereo not drawn)
-20% | Cc1ccc(-c2nc3ncccc3o2)cc1NC(=O)c1ccccc1Br
8% | OCC1(Cc2ccccc2)CCCN(Cc2ccc3c(c2)OCCO3)C1 (stereo not drawn)
-12% | CCCCOn1c(C)c(C(C)=O)c2c3no[n+]([O-])c3ccc21
-5% | Cc1ccc(S(=O)(=O)C2(C(=O)NC3CCCC3)CC2)cc1
-29%&-4% | CCOc1cc(C(=O)Nc2cc3c(cc2N2CCOCC2)n(C)c(=O)n3C)cc(OCC)c1OCC
-2% | Cc1csc(NC(=O)CSc2ccc([N+](=O)[O-])cn2)n1
u | COc1cccc(-c2cncnc2NCc2cccnc2)c1
-12% | O=S(=O)(NCc1cccnc1)c1ccccc1

Following part
VDR inhibitor | smiles
-4% | Cc1cc(C)n(CC(O)Cn2ccc3ccccc32)n1 (stereo not drawn)
-16% | S=C(NCc1cccnc1)Nc1cccc2ccccc12
2% | COCCNC(=O)c1ccc(CS(=O)(=O)c2ccccc2)o1
4% | O=C(NCc1cccnc1)Nc1cccc(F)c1
-9% | COc1cccc(NC(=O)CN2C(=O)COc3ccc(C)cc32)c1
-10% | COc1ccc(-c2sc3ccc(OC)cc3c2-c2ccc(O)cc2)cc1
0%&-2% | O=c1c2cnn(-c3ccc(F)cc3)c2ncn1Cc1ccc(F)cc1
3% | CC(=O)NC(Cc1ccccc1)C(=O)N1CCN(C(=S)NCC(C)C)CC1 (stereo not drawn)
-19% | CCCCCCCCOc1c(OC)cc(/C=C/C(=O)N2CCN(c3ccc(C)c(C)c3)CC2)cc1OC
11% | CCCCSCCCNC(=O)C1CCC(CNS(=O)(=O)c2c(C)cc(C)cc2C)CC1 (stereo not drawn)
10% | CCN=C1S/C(=C\c2cn(CC(=O)NCc3ccco3)c3ccccc23)C(=O)N1CC
-13% | Cc1nc([N+](=O)[O-])c(Br)n1CC(=O)c1ccc2ccccc2c1
10% | O=C(CN1CCN(c2ccc(F)cc2)CC1)NCC1CCCO1 (stereo not drawn)
-10% | CCC(C)Sc1ccc([C@@H]2[C@H]3C(=O)N(C)C(=O)[C@H]3[C@]3(C(=O)OC)CCCN23)cc1 (stereo partly drawn)
-1% | O=C1NC(c2ccccc2)CCO1 (stereo not drawn)

(cont.)
VDR inhibitor | smiles
12% | Cc1c(C(=O)OCC(C)(C)CN(C)C)oc2ccccc12
1% | Cc1ccc(NC(=O)N2C3CCCC2CC(NC(=O)C(C)(C)C)C3)cc1 (stereo not drawn)
5% | CCn1cc(C(=O)N(C)Cc2ccccc2)c(=O)c2cc(S(=O)(=O)N3CCCCCC3)ccc21
3% | O=C(CCn1c(=O)oc2ccccc21)n1c(=O)oc2ccccc21
20% | COc1nsnc1NS(=O)(=O)c1ccc(NC(=S)NC(=O)c2cccnc2)cc1
12% | Nc1n[nH]c(N)c1N=Nc1ccc2c(c1)OCO2
u | Cc1ccc(OCc2cc(C(=O)N(C)Cc3cnc4ccccn34)no2)cc1C
-6% | CCCCN1C(=O)N(c2ccccc2Cl)C(C)(O)CC1(C)C (stereo not drawn)
-10% | Cc1ccc(NC(=O)CC2Oc3ccccc3NC2=O)c(C)c1 (stereo not drawn)
6% | Cc1ccc(Cl)cc1N1CCN(C(=O)c2noc3c2CCCC3)CC1
6% | CSc1ccc(S(=O)(=O)Nc2ccc3c(c2)OCCO3)cc1
-18% | Cc1ccc(NC2=CC(=O)CC(C)(C)C2)cc1Cl
12% | Cc1cccc(Cn2c(C(C)(C)C)cc3cccnc32)c1
6% | CC(=O)N[C@@H](CC(C)C)C(=O)N[C@@H](CCCNC(=N)N)C(=O)N[C@@H](Cc1cnc[nH]1)C(=O)N[C@@H](Cc1ccc(O)cc1)C(=O)N[C@@H](CC(C)C)C(=O)N[C@@H](CC(N)=O)C(=O)N[C@@H](CC(C)C)C(=O)N[C@@H](CC(C)C)C(=O)N[C@H](C(=O)N[C@@H](CCCNC(=N)N)C(=O)N[C@@H](CCC(N)=O)C(=O)N[C@@H](CCCNC(=N)N)C(=O)N[C@@H](Cc1ccc(O)cc1)C(N)=O)[C@@H](C)O
-3% | O=C(Nc1nccs1)c1cc(N2CCOCC2)nc2ccccc12

Four compounds already listed, arranged by molar mass, rising:
VDR inhibitor | smiles
12% | Nc1n[nH]c(N)c1N=Nc1ccc2c(c1)OCO2
3% | O=C(CCn1c(=O)oc2ccccc21)n1c(=O)oc2ccccc21
6% | Cc1ccc(Cl)cc1N1CCN(C(=O)c2noc3c2CCCC3)CC1
5% | CCn1cc(C(=O)N(C)Cc2ccccc2)c(=O)c2cc(S(=O)(=O)N3CCCCCC3)ccc21

(list continues)
VDR inhibitor | smiles
-3% | COc1ccc(C2CC(c3ccccc3)Nc3nc(N)nn32)cc1 (stereo not drawn)
-1% | COc1cc(Nc2c3c(nc4ccccc24)CCCC3)cc(OC)c1OC
-8% | COc1ccc(OC)c(-c2nc(C(=O)NC3CCN(Cc4ccccc4)CC3)cc3c2[nH]c2ccccc23)c1
15% | Cc1ccc(-c2csc(N(C)C(=O)c3c(C)nn(-c4ccccc4)c3Cl)n2)cc1
8% | CCCc1ccc(OCc2ccc(C(=O)N/N=C/c3cccc([N+](=O)[O-])c3)o2)c(OC)c1
-4% | COc1ccc(S(=O)(=O)N(CC(=O)N2CCN(C)CC2)c2ccc(C)cc2)cc1OC
-16% | COc1ccc(Nc2cc(C)nc3ncnn23)cc1
-14% | COc1cc(C(=O)Nc2ccc(-c3nnc(-c4ccco4)o3)cc2)cc(OC)c1OC
-20% | CC(=O)Cc1c(C(=O)O)c(C)nn1-c1ccccc1
7% | CCOC(=O)C1CCN(C(=O)Cc2cccs2)CC1
11% | O=C(O)Cc1ccc(S(=O)(=O)Nc2ccccc2C(=O)O)cc1
-5% | COc1ccc(C(C(=O)NC2CCCCC2)N(C(=O)CCl)c2cccc(Cl)c2)cc1 (stereo not drawn)
-12% | Cc1ncoc1C(=O)Nc1ccc2c(c1)OCCO2
16% | CCOC(=O)c1nc(C)n(-c2cc(Cl)ccc2Cl)n1
-6% | CCOC(=O)c1ccc(NC(=O)c2c(NCc3cccs3)sc3c2CCCC3)cc1

Later entries:
VDR inhibitor | smiles
1% | O=C(Cc1c(F)cccc1Cl)NNC(=O)c1cccs1
8% | Cc1nc(NCCCn2ccnc2)c2ccccc2n1
-3% | CSc1ccc(Cn2nnc(C(=O)Nc3ccc(C)cc3Cl)c2N)cc1
10% | CCOc1ccc(S(=O)(=O)NCCc2sc(-c3ccc(C)cc3)nc2C)cc1
-3% | Nc1ccc(NC(=O)c2cccs2)c(Cl)c1
-2% | COc1cccc(C2c3[nH]c4ccccc4c3CCN2C(=O)c2ccccc2F)c1OC (stereo not drawn)
20% | O=P1(NC2CCCCC2)OCC2(CO1)COP(=O)(NC1CCCCC1)OC2 (stereo not drawn)
2% | CCN1CCN(CCC(=O)Nc2ccc(F)c(F)c2)CC1
u | Cc1c(NC(=O)COC(=O)CCC(=O)c2ccc(Cl)cc2)c(=O)n(-c2ccccc2)n1C
u | Cc1c(Cl)cccc1NC(=S)N(Cc1cccs1)C1CCCC1
4% | CN(C)CCCN(C(=O)c1ccc(S(=O)(=O)N(C)C)cc1)c1nc2cc3c(cc2s1)OCO3
-6%&6% | Cc1ccc(OCCSc2nc3ccccc3n2CCC(=O)O)cc1
0% | Cc1ccc(NC2=NCC(=O)N2C2CCCC2)cc1
1% | O=C(CCCc1cccs1)N1CCN(S(=O)(=O)c2ccccc2Br)CC1
-18% | Cc1ccc(NC(=O)CCCC2CCCCC2)c(O)c1

The list goes on:
VDR inhibitor | smiles
u | COc1ccc(Br)cc1C(C[N+](=O)[O-])c1c(N)n(C)c(=O)n(C)c1=O (stereo not drawn)
-19% | O=C(CCCOc1ccccc1)Nc1ncccn1
6% | CCOc1ccc(NC(=O)CSC2=Nc3ccccc3C3=NC(CCC(=O)NCc4ccccc4)C(=O)N23)cc1 (stereo not drawn)
-11% | O=C(O)c1cccc([N+](=O)[O-])c1C(=O)Nc1cccc2ccccc12
-6% | CCOC(=O)/C(N=Nc1c(Br)cc(Br)cc1Br)=C(\C)O
0% | CC1CCC2(CC1)NC(=O)N(CC(=O)N1CCN(S(=O)(=O)c3ccccc3)CC1)C2=O (stereo not drawn)
13% | O=C(O)C1C2CCC(C2)C1C(=O)NCc1ccccn1 (stereo not drawn)
-16% | COc1cccc(CC(=O)OCC(=O)N2CCN(c3ccc(F)cc3)CC2)c1
7% | O=C(Nc1ccc(Br)cc1)N1CCc2ccccc2C1
8% | CC1CCCC1/C(=N/O)c1ccccc1 (stereo not drawn)
-9% | O=C(/C=C/c1ccccc1)N1CCC(c2ccccc2)C1 (stereo not drawn)
8% | O=c1[nH]cnc2scc(-c3ccsc3)c12
1% | Cc1occc1-c1nnc(SCC(=O)N(C)c2ccccc2)n1C
14% | COc1ccccc1CNC(=O)c1nn(C)c2c1CS(=O)(=O)c1ccccc1-2
4% | CCC(=O)Nc1nc2ccccc2n1Cc1ccccc1
-10% | CN1CCN(c2ccc(Cl)cc2NC(=O)CN2C(=O)NC(C)(c3ccccc3)C2=O)CC1 (stereo not drawn)

Source: PubChem BioAssay (National Center for Advancing Translational Sciences (NCATS))
